FGF22 binding: shifts melting point of recombinant human FGF22. recombinant FGF22 thermal shift, SYPRO orange fluorescence; percent of sucrose octasulfate shift, DMSO zero. calls only at 9.99 µM. 1.5% of 340,000 active. AID 651658;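 active means melting point raised past a set limit in the mean and every replicate; three in four hits are not shown here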
Target sequence (Q9HCT0 whole entry, looked up): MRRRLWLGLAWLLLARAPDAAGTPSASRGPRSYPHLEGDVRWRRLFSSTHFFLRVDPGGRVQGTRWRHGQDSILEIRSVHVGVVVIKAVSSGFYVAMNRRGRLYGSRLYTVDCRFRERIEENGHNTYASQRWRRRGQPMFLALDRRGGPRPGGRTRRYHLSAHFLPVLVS
Ecoli rRNA inh: inhibits bacterial ribosomal RNA function over humanized ribosomes; E. coli WT GFP vs humanized-ribosome RFP mutants, fluorescence, 24 h; stronger effect = lower value; DMSO median 0, no signal -100; GFP signal change (wild-type ribosome), % (test concentration not listed); 1.6% of 350,000 active;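 active means significant combined selectivity score with lowered wild-type GFP, culture density cut under 30%, mutant RFP and density less affected; inactive means any of these conditions unmet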; further: one replicate is shown; some compounds called inactive have numbers as strong as hits
Ecoli rRNA inh OD600: also measured in Ecoli rRNA inh; calls as there; OD600 change, %; measured here: OD600 growth;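 optical density of the mix in the first replicate; 0 = DMSO median and -100 = no signal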
Ecoli rRNA inh RFP: further read-out of Ecoli rRNA inh, marked with its call; RFP signal change, %; measured here: RFP humanized mutant strains;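 first replicate; 0 = DMSO median and -100 = no signal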
* = called active by the depositor.

Screening COCC#Cc1cnc2c(c1)C(=O)N([C@H](C)CO)C[C@H](C)[C@H](CN(C)S(=O)(=O)c1cn(C)cn1)O2 returned FGF22 binding inactive, Ecoli rRNA inh 6.2, Ecoli rRNA inh OD600 17.6 and Ecoli rRNA inh RFP -2.3.
Screening C[C@H]1CCCCO[C@H](CN(C)C)[C@@H](C)CN([C@@H](C)CO)C(=O)c2cc(NC(=O)Nc3cccc4ccccc34)ccc2O1 returned FGF22 binding inactive, Ecoli rRNA inh -0.4, Ecoli rRNA inh OD600 -0.8 and Ecoli rRNA inh RFP 1.7.
For COc1ccc(S(=O)(=O)Nc2cccc3c2O[C@H](CN(C)Cc2ccc4c(c2)OCO4)[C@@H](C)CN([C@@H](C)CO)C3=O)cc1 the results were FGF22 binding inactive, Ecoli rRNA inh -4.6, Ecoli rRNA inh OD600 -8.4 and Ecoli rRNA inh RFP -0.7.
Screening C[C@H]1CN([C@@H](C)CO)C(=O)c2cc(NC(=O)c3ccncc3)ccc2O[C@@H]1CN(C)S(=O)(=O)c1cccs1 returned FGF22 binding inactive, Ecoli rRNA inh 0.3, Ecoli rRNA inh OD600 1.6 and Ecoli rRNA inh RFP 0.1.
`CC(C)NC(=O)N1CC[C@@H]2[C@H]1c1cc(-c3ccccc3)ccc1N(C)[C@H]2CO` gave FGF22 binding inactive, Ecoli rRNA inh -10.2, Ecoli rRNA inh OD600 -3.8 and Ecoli rRNA inh RFP -2.9.
Screening Cc1ccc(S(=O)(=O)N[C@H]2CC[C@@H](CCNC(=O)C3CCOCC3)O[C@@H]2CO)cc1 returned FGF22 binding inactive, Ecoli rRNA inh -0.3, Ecoli rRNA inh OD600 0.9 and Ecoli rRNA inh RFP -0.2.
CN(C)Cc1ccccc1 was read as FGF22 binding inactive, Ecoli rRNA inh 6.0, Ecoli rRNA inh OD600 9.7 and Ecoli rRNA inh RFP -2.0.
Screening CC(C)CC#Cc1cnc2c(c1)C(=O)N([C@H](C)CO)C[C@@H](C)[C@H](CN(C)C(=O)c1ccc(F)cc1)O2 returned FGF22 binding inactive, Ecoli rRNA inh -2.6, Ecoli rRNA inh OD600 -12.9 and Ecoli rRNA inh RFP 0.6.
Screening O=C(CC(F)(F)F)N1C[C@H]2[C@@H](c3ccccc31)[C@@H](CO)N2C(=O)CN1CCOCC1 returned FGF22 binding inactive, Ecoli rRNA inh 3.6, Ecoli rRNA inh OD600 9.5 and Ecoli rRNA inh RFP -4.1.
`COc1ccc(NC(=O)Nc2cccc3c2O[C@@H](CN(C)Cc2ccncc2)[C@H](C)CN([C@H](C)CO)C3=O)cc1` gave FGF22 binding inactive, Ecoli rRNA inh -1.3, Ecoli rRNA inh OD600 -0.9 and Ecoli rRNA inh RFP 1.5.
CC(C)NC(=O)N[C@@H]1CC[C@H](CC(=O)NCc2ccc(Oc3ccccc3)cc2)O[C@H]1CO was read as FGF22 binding inactive, Ecoli rRNA inh -4.4, Ecoli rRNA inh OD600 -9.0 and Ecoli rRNA inh RFP -0.7.
`COc1ccc(NC(=O)N(C)C[C@@H]2Oc3c(NS(=O)(=O)c4ccc(Cl)cc4)cccc3C(=O)N([C@H](C)CO)C[C@H]2C)cc1` gave FGF22 binding inactive, Ecoli rRNA inh -2.4, Ecoli rRNA inh OD600 -7.6 and Ecoli rRNA inh RFP 0.6.
Screening O=C(C[C@@H]1CC[C@H]2[C@@H](COC[C@H](O)CN2S(=O)(=O)c2cccc(F)c2)O1)Nc1ccc(-c2ccccc2)cc1 returned FGF22 binding inactive, Ecoli rRNA inh -3.4, Ecoli rRNA inh OD600 -49.0 and Ecoli rRNA inh RFP 24.3.
For C[C@H]1CN([C@@H](C)CO)C(=O)Cc2cc(NC(=O)CCCCCC(=O)Nc3ccccc3N)ccc2O[C@H]1CN(C)Cc1ccc(-c2ccccc2)cc1 the results were FGF22 binding inactive, Ecoli rRNA inh -3.6, Ecoli rRNA inh OD600 -18.9 and Ecoli rRNA inh RFP 0.3.
`COCC#Cc1cnc2c(c1)C(=O)N([C@H](C)CO)C[C@@H](C)[C@H](CN(C)C)O2` gave FGF22 binding inactive, Ecoli rRNA inh 0.8, Ecoli rRNA inh OD600 4.4 and Ecoli rRNA inh RFP -0.8.
`CCCNC(=O)N(C)C[C@H]1Oc2cc(-c3ccccc3F)ccc2S(=O)(=O)N([C@@H](C)CO)C[C@H]1C` gave FGF22 binding inactive, Ecoli rRNA inh -7.8, Ecoli rRNA inh OD600 -5.3 and Ecoli rRNA inh RFP 3.5.
CC(=O)N1[C@@H]2c3ccc(/C=C/c4ccccc4)c(=O)n3C[C@H]1[C@H](CO)[C@H]2C(=O)N(C)C was read as FGF22 binding inactive, Ecoli rRNA inh -0.1, Ecoli rRNA inh OD600 0.5 and Ecoli rRNA inh RFP -0.6.
For COc1ccc(-c2cn(CC[C@H]3CC[C@H](NC(=O)Cc4ccccn4)[C@H](CO)O3)nn2)cc1 the results were FGF22 binding inactive, Ecoli rRNA inh 2.3, Ecoli rRNA inh OD600 6.4 and Ecoli rRNA inh RFP -2.4.
`COc1ccccc1CN1[C@H](CO)[C@@H]2c3ccccc3N(C(=O)c3ccc(F)cc3)C[C@@H]21` gave FGF22 binding inactive, Ecoli rRNA inh -8.6, Ecoli rRNA inh OD600 -9.9 and Ecoli rRNA inh RFP 4.4.
COC(=O)C1=C(C)N(C)C(=NCc2cc(OC)c(OC)c(OC)c2)NC1c1ccc(C(F)(F)F)cc1 (stereo not drawn) was read as FGF22 binding inactive, Ecoli rRNA inh -5.6, Ecoli rRNA inh OD600 -36.8 and Ecoli rRNA inh RFP 19.6.
For C[C@H](CO)N1C[C@H](C)[C@H](CN(C)Cc2ccc(C(=O)O)cc2)Oc2c(NS(=O)(=O)c3cn(C)cn3)cccc2C1=O the results were FGF22 binding inactive, Ecoli rRNA inh 1.9, Ecoli rRNA inh OD600 4.2 and Ecoli rRNA inh RFP -3.0.
Screening O=C(C[C@H]1CC[C@H]2[C@@H](COC[C@@H](O)CN2Cc2cccc(C(F)(F)F)c2)O1)NCc1ccc(F)cc1 returned FGF22 binding inactive, Ecoli rRNA inh -1.2, Ecoli rRNA inh OD600 -19.1 and Ecoli rRNA inh RFP 6.2.
For COc1ccc(CN(C)C[C@H]2OCCCC[C@@H](C)Oc3ccc(NC(=O)NC(C)C)cc3C(=O)N([C@H](C)CO)C[C@@H]2C)cc1 the results were FGF22 binding inactive, Ecoli rRNA inh -0.8, Ecoli rRNA inh OD600 3.8 and Ecoli rRNA inh RFP -1.2.
Screening Cc1noc(C)c1S(=O)(=O)N(C)C[C@@H]1Oc2ccc(NS(=O)(=O)c3ccccc3)cc2CC(=O)N([C@@H](C)CO)C[C@@H]1C returned FGF22 binding inactive, Ecoli rRNA inh 1.1, Ecoli rRNA inh OD600 -2.1 and Ecoli rRNA inh RFP 2.8.
For CC(C)NC(=O)N(C)C[C@H]1Oc2c(cccc2N(C)C)C(=O)N([C@H](C)CO)C[C@H]1C the results were FGF22 binding inactive, Ecoli rRNA inh -2.0, Ecoli rRNA inh OD600 8.4 and Ecoli rRNA inh RFP -1.9.
CO[C@H]1CC[C@H]2CCOc3ccc(C#N)cc3C(=O)N(C)C[C@H](OC)[C@@H](C)C(=O)N(C)C[C@@H]1O2 was read as FGF22 binding inactive, Ecoli rRNA inh -1.9, Ecoli rRNA inh OD600 0.9 and Ecoli rRNA inh RFP -5.5.
Screening COCC#Cc1ccc2c(c1)O[C@@H](CN(C)Cc1ccc(F)cc1)[C@@H](C)CN([C@H](C)CO)S2(=O)=O returned FGF22 binding inactive, Ecoli rRNA inh -4.0, Ecoli rRNA inh OD600 -13.4 and Ecoli rRNA inh RFP -2.5.
For CS(=O)(=O)N1[C@@H]2c3ccc(-c4cccc(F)c4)c(=O)n3C[C@H]1[C@H](CO)[C@H]2C(=O)N1CCCCC1 the results were FGF22 binding inactive, Ecoli rRNA inh -0.2, Ecoli rRNA inh OD600 11.5 and Ecoli rRNA inh RFP -0.1.
For COc1cccc(NC(=O)Nc2ccc3c(c2)C(=O)N(C)C[C@@H](OC)[C@H](C)CN(CCC(F)(F)F)[C@H](C)CO3)c1 the results were FGF22 binding inactive, Ecoli rRNA inh 1.4, Ecoli rRNA inh OD600 9.5 and Ecoli rRNA inh RFP 4.8.
For C[C@@H]1CCCCO[C@@H](CN(C)C(=O)NC2CCCCC2)[C@H](C)CN([C@@H](C)CO)C(=O)c2cc(NS(C)(=O)=O)ccc2O1 the results were FGF22 binding inactive, Ecoli rRNA inh -2.4, Ecoli rRNA inh OD600 -3.1 and Ecoli rRNA inh RFP -1.6.

5 entries drawn at random from those above:
For C[C@@H]1CCCCO[C@@H](CN(C)C(=O)NC2CCCCC2)[C@H](C)CN([C@@H](C)CO)C(=O)c2cc(NS(C)(=O)=O)ccc2O1 the results were FGF22 binding inactive, Ecoli rRNA inh -2.4, Ecoli rRNA inh OD600 -3.1 and Ecoli rRNA inh RFP -1.6.
Screening COCC#Cc1ccc2c(c1)O[C@@H](CN(C)Cc1ccc(F)cc1)[C@@H](C)CN([C@H](C)CO)S2(=O)=O returned FGF22 binding inactive, Ecoli rRNA inh -4.0, Ecoli rRNA inh OD600 -13.4 and Ecoli rRNA inh RFP -2.5.
For CS(=O)(=O)N1[C@@H]2c3ccc(-c4cccc(F)c4)c(=O)n3C[C@H]1[C@H](CO)[C@H]2C(=O)N1CCCCC1 the results were FGF22 binding inactive, Ecoli rRNA inh -0.2, Ecoli rRNA inh OD600 11.5 and Ecoli rRNA inh RFP -0.1.
For COc1cccc(NC(=O)Nc2ccc3c(c2)C(=O)N(C)C[C@@H](OC)[C@H](C)CN(CCC(F)(F)F)[C@H](C)CO3)c1 the results were FGF22 binding inactive, Ecoli rRNA inh 1.4, Ecoli rRNA inh OD600 9.5 and Ecoli rRNA inh RFP 4.8.
For CC(C)NC(=O)N(C)C[C@H]1Oc2c(cccc2N(C)C)C(=O)N([C@H](C)CO)C[C@H]1C the results were FGF22 binding inactive, Ecoli rRNA inh -2.0, Ecoli rRNA inh OD600 8.4 and Ecoli rRNA inh RFP -1.9.

More records
C[C@H]1CN([C@@H](C)CO)C(=O)c2cc(-c3cccnc3)cnc2O[C@@H]1CN(C)C(=O)Nc1ccc(F)cc1 was read as FGF22 binding inactive, Ecoli rRNA inh 1.0, Ecoli rRNA inh OD600 11.8 and Ecoli rRNA inh RFP -2.3.
Screening COc1ccc(NC(=O)N(C)C[C@H]2Oc3ccc(NC(=O)Nc4ccc5c(c4)OCO5)cc3CC(=O)N([C@H](C)CO)C[C@@H]2C)cc1 returned FGF22 binding inactive, Ecoli rRNA inh -3.0, Ecoli rRNA inh OD600 0.7 and Ecoli rRNA inh RFP -2.0.
`C[C@@H]1CN([C@@H](C)CO)S(=O)(=O)c2ccc(C#C[C@@H](C)O)cc2O[C@@H]1CN(C)C(=O)Cc1ccccn1` gave FGF22 binding inactive, Ecoli rRNA inh 3.4, Ecoli rRNA inh OD600 1.0 and Ecoli rRNA inh RFP -0.1.
`C[C@H]1CN([C@@H](C)CO)C(=O)c2cccc(NC(=O)CCCCCC(=O)Nc3ccccc3N)c2O[C@@H]1CN(C)S(=O)(=O)c1ccc(F)cc1` gave FGF22 binding inactive, Ecoli rRNA inh 0.9, Ecoli rRNA inh OD600 -2.3 and Ecoli rRNA inh RFP -0.8.
Screening CCCc1cn(CC[C@H]2CC[C@@H](NC(=O)C3CCOCC3)[C@@H](CO)O2)nn1 returned FGF22 binding inactive, Ecoli rRNA inh 3.0, Ecoli rRNA inh OD600 4.1 and Ecoli rRNA inh RFP -1.0.
For O=C(NCC[C@H]1CC[C@@H](NS(=O)(=O)c2ccccc2)[C@@H](CO)O1)c1ccccc1F the results were FGF22 binding inactive, Ecoli rRNA inh -2.6, Ecoli rRNA inh OD600 -2.0 and Ecoli rRNA inh RFP -1.7.
`O=C(N[C@@H]1CC[C@@H](CCn2cc(-c3ccccc3)nn2)O[C@H]1CO)c1ccccc1F` gave FGF22 binding inactive, Ecoli rRNA inh -0.2, Ecoli rRNA inh OD600 3.4 and Ecoli rRNA inh RFP 0.0.
`CC(C)NC(=O)N(C)C[C@H]1OCCCC[C@@H](C)Oc2ccc(NS(=O)(=O)c3cccs3)cc2C(=O)N([C@H](C)CO)C[C@H]1C` gave FGF22 binding inactive, Ecoli rRNA inh -2.9, Ecoli rRNA inh OD600 3.0 and Ecoli rRNA inh RFP 2.3.
Screening CCC(=O)N(C)C[C@H]1Oc2ncc(-c3ccc(C)cc3)cc2C(=O)N([C@H](C)CO)C[C@H]1C returned FGF22 binding inactive, Ecoli rRNA inh -1.1, Ecoli rRNA inh OD600 9.7 and Ecoli rRNA inh RFP -3.1.
Screening COC(=O)c1ccc(CN2CC(=O)N3[C@H](CO)[C@H](c4ccc(Br)cc4)[C@@H]3C2)cc1 returned FGF22 binding inactive, Ecoli rRNA inh 0.7, Ecoli rRNA inh OD600 -4.7 and Ecoli rRNA inh RFP 1.7.
C[C@H]1CN([C@@H](C)CO)C(=O)c2cc(N(C)C)ccc2O[C@@H]1CN(C)C(=O)Nc1ccc(C(F)(F)F)cc1 was read as FGF22 binding inactive, Ecoli rRNA inh -20.8, Ecoli rRNA inh OD600 -30.2 and Ecoli rRNA inh RFP -0.4.
For C[C@H]1CN([C@@H](C)CO)C(=O)c2cccc(NC(=O)c3cnccn3)c2O[C@H]1CN(C)CC1CC1 the results were FGF22 binding inactive, Ecoli rRNA inh 0.5, Ecoli rRNA inh OD600 3.3 and Ecoli rRNA inh RFP -1.8.

Screening results as filed in PubChem BioAssay.

This is a subset; the hit share may differ from the screen's.
